Mtb MenB inh: M. tuberculosis MenB inhibitors, primary screen, biochemical, absorbance. AID 540299, 2011. 100,000 tested, 0.43% active. inhibition, %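 (about 12 µg/mL by stock and volumes)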. MenB enzyme assay, absorbance read-out; some hits fall short of the stated cut. 1,4-dihydroxy-2-naphthoyl-CoA synthase (Mycobacterium tuberculosis (strain ATCC 25618 / …;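 active means mean of two replicates above 30%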;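 further: 0% = no compound and 100% = wells with inactive enzyme; the first replicate is given; strong numbers were not always called active; inactives centre near -10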
Target sequence (P9WNP5 whole entry, looked up): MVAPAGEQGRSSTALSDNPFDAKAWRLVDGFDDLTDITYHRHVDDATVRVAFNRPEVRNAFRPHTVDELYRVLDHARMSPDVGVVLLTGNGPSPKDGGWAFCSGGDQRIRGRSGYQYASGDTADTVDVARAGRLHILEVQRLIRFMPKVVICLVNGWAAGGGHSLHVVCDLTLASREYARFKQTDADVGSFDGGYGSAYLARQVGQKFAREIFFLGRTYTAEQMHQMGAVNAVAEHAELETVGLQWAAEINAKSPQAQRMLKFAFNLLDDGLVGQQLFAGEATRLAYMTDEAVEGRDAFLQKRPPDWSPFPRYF
Mtb MbtI inh: MbtI salicylate synthase inhibitors, primary screen, biochemical, fluorescence intensity | inhibition, %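 (about 17 µg/mL by stock and volumes)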 | purified MbtI enzyme, fluorescence intensity read-out | 100,000 tested, 0.89% active | AID 493033, 2011 | P9WFX0;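 active means above 50% in both replicates, above 80% if mildly self-fluorescent; inactive means the rest, strongly fluorescent compounds included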;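 further: 0% = mean of negative and 100% = mean of positive controls; one replicate is shown; some compounds called inactive have numbers as strong as hits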
Target sequence (P9WFX0 whole entry, looked up): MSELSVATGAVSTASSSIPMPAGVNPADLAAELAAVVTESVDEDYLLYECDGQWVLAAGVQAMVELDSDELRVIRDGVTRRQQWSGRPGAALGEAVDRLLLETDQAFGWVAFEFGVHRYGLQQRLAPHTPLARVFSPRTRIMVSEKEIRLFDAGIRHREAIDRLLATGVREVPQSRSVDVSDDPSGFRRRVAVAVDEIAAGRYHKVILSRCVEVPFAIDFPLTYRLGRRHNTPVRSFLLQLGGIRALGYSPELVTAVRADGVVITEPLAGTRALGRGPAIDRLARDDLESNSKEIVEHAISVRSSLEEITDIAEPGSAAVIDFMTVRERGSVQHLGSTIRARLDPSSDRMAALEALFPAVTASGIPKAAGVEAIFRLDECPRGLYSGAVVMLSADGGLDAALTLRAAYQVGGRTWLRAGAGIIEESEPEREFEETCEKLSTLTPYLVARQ
PV pol inh: poliovirus RdRp elongation inhibitors, primary screen, biochemical, fluorescence polarization, total intensity | Genome polyprotein (Poliovirus type 1 (strain Mahoney)), P03300 | poliovirus polymerase elongation; stronger effect = lower value | % elongation, % (compound at 16.7 µg/mL) | 150,000 tested, 0.66% active | AID 588519, 2011; in the data active means % elongation below about 90%; further: some results filed as inactive read as strong as hits
PV pol inh intensity: second read-out of PV pol inh, no call of its own (marks repeat the call); % elongation; measured here: total intensity read-out; formula for this scale not given here;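 total fluorescence in place of polarization; lower means less elongation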
* = called active by the depositor; / = no result given; & = joins results of further samples.

Start of the data: the first two records, to show the layout:
1	O=C(CCn1c(=O)oc2ccccc21)NCc1ccco1
2	CCOC(=O)c1cnc2ccccc2c1NCCc1ccccc1
Screen / compound no.	1	2
Mtb MenB inh	-20	-1
Mtb MbtI inh	3	40
PV pol inh	102	100
PV pol inh intensity	110	97

Results, from the start:
1	O=C(CCn1c(=O)oc2ccccc21)NCc1ccco1
2	CCOC(=O)c1cnc2ccccc2c1NCCc1ccccc1
3	COc1ccc(-c2cc(-c3ccco3)nn2-c2nc(-c3ccc(Cl)cc3)cs2)cc1
4	NC(=O)CSc1ncnc2sc3c(c12)CCC3
5	COC(=O)CNC(=O)c1ccn[nH]1
Screen / compound no.	1	2	3	4	5
Mtb MenB inh	-20	-1	-26	-7	-2
Mtb MbtI inh	3	40	17	-3	/
PV pol inh	102	100	101	102	110
PV pol inh intensity	110	97	95	108	116

6	CCCCN=C1SC(CC(=O)Nc2ccccc2C)C(=O)N1CCCC (stereo not drawn)
7	CN1CCCN(CC2CC=CCC2)CC1 (stereo not drawn)
8	CN1C(=O)c2ccccc2Sc2ccc(NC(=O)NC3CC3)cc21
9	CCCc1nc2ccccc2n1CC(O)COc1ccccc1 (stereo not drawn)
10	CCn1cc(S(=O)(=O)NCc2cccs2)cn1
Screen / compound no.	6	7	8	9	10
Mtb MenB inh	0	-11	13	-7	-28
Mtb MbtI inh	3	-11	-9	-2	6
PV pol inh	103	102	102	101	102
PV pol inh intensity	102	104	102	100	102

11	Cc1ccc(O)c(C(=O)c2cnn3c(N)nnc3c2)c1
12	Cn1c(CN2CCOCC2)nnc1SCc1ccc(Cl)cc1
13	COCCCNc1cc(C)nc2ccccc12
14	CCN1C[C@]2(COC)CC[C@H](O)[C@@]34C5C[C@H]6C(OC)C5[C@](O)(C[C@H]6OC)C(O)(C(OC)C23)[C@@H]14 (stereo partly drawn)
15	CN(C(=O)COc1ncnc2sccc12)C1CCCCC1
Screen / compound no.	11	12	13	14	15
Mtb MenB inh	-3	-12	14	4	3
Mtb MbtI inh	-5	-4	6	-19	26
PV pol inh	64*	100	98	100	102
PV pol inh intensity	66*	103	104	99	99

16	O=C(COc1ccc2c(c1)CCC2)N(Cc1cccnc1)c1ccc2c(c1)OCO2
17	Cc1c(C(=O)N2CCCC2)c(S(=O)(=O)Nc2ccccc2)c(C)n1C
18	Cc1cccc(/C=N/n2c(C)cc(C)c(C#N)c2=O)c1
19	CN1CCN(Cc2cn3ccccc3n2)CC1
20	Cn1cccc1/C=C1\CC(c2ccccc2)C/C(=C\c2cccn2C)C1=O (stereo not drawn)
Screen / compound no.	16	17	18	19	20
Mtb MenB inh	-26	-17	-4	7	-50
Mtb MbtI inh	3	-22	4	24	6
PV pol inh	117	101	101	101	71
PV pol inh intensity	147	102	101	100	198

21	COc1ccc(NC(=O)CN(C)CC(=O)Nc2ccc(N3CCOCC3)cc2)cc1
22	S=C1NCN(CCc2ccccc2)CN1
23	CC(=O)Nc1ccc2nc(SCc3ccccc3C#N)sc2c1
24	COC(=O)c1sccc1NC(=O)c1ccc(F)cc1
25	CC(Oc1ccccc1)C(=O)N=Nc1c(O)[nH]c2ccc(Br)cc12 (stereo not drawn)
Screen / compound no.	21	22	23	24	25
Mtb MenB inh	0	-9	-21	-2	-20
Mtb MbtI inh	8	-221	7	10	15
PV pol inh	105	99	102	101	102
PV pol inh intensity	104	97	100	102	103

26	Cc1cc(COC(=O)C23CCC(=O)N2c2ccccc2C(=O)N3C)no1 (stereo not drawn)
27	CN(C)c1nc(N(C)C)nc(N(C#N)CN2C(=O)c3ccccc3C2=O)n1
28	OC1C2CN3CCN(C2)CC1(c1ccccc1)C3 (stereo not drawn)
29	Cc1ccc(N2C(=O)/C(=C/c3ccc4c(c3)OCO4)N=C2SCC(=O)Nc2cc(C)on2)cc1
30	O=C(Oc1cccc2ccccc12)c1ccccc1
Screen / compound no.	26	27	28	29	30
Mtb MenB inh	-25	-17	-15	-21	-13
Mtb MbtI inh	102	-4	/	18	-8
PV pol inh	108	100	104	98	106
PV pol inh intensity	104	104	99	95	109

31	CN(C)C=Nc1ccccc1I
32	Cc1ccc(CCC(=O)NC2CCc3ccccc3C2)o1 (stereo not drawn)
33	CSc1cnn(-c2ccccc2)c(=O)c1SC
34	S=C(NC1CCCC1)N1CCN(c2ccccc2)CC1
35	Cc1cc(C)cc(NC(=O)C2CC(=O)NC(=NCc3ccccc3)N2)c1 (stereo not drawn)
Screen / compound no.	31	32	33	34	35
Mtb MenB inh	-168	16	-20	-8	1
Mtb MbtI inh	-1	4	24	-12	-12
PV pol inh	102	102	101	100	102
PV pol inh intensity	105	102	101	103	100

36	Cc1cc(C)nc(C(=O)N/N=C/c2cc(C)n(C3CCCC3)c2C)n1
37	CC(C(=O)Nc1cccc(Cl)c1)N1CCNC(=O)C1 (stereo not drawn)
38	CN(CC(=O)Nc1ccc(F)cc1)C(=O)CSc1ccc2c(c1)OCCO2
39	CC(C(=O)Nc1ccccn1)c1ccccc1 (stereo not drawn)
40	COC(=O)C1=C(O)/C(=C/c2ccc(O)cc2)SC1=Nc1ccccc1
Screen / compound no.	36	37	38	39	40
Mtb MenB inh	-50	-31	-24	/	-63
Mtb MbtI inh	22	-8	98*	-3	-6
PV pol inh	101	104	106	103	103
PV pol inh intensity	108	102	99	101	102

41	Cc1ccc(C(=O)Nc2ccccc2C#N)cc1
42	COc1ccc(CNC(=O)c2c(-n3cccc3)sc(C)c2C)cc1
43	Cc1ccc(S(=O)(=O)N(C(=O)C2CCCCC2)c2ccc3oc(=O)sc3c2)c(C)c1
44	Cn1c(=O)c2[nH]cnc2n(C)c1=O
45	CS(=O)c1ccc2c(c1)NC(=O)CS2 (stereo not drawn)
Screen / compound no.	41	42	43	44	45
Mtb MenB inh	-31	10	-24	-14&1&-1	/
Mtb MbtI inh	14	14	-30	-6&-3&-8	0
PV pol inh	/	/	101	105&100&98	103
PV pol inh intensity	/	/	101	102&101&100	104

46	CN(C)Cc1c(O)ccc2cc(-c3nc4ccccc4n3C)c(=O)oc12
47	Cc1cc(C(=O)COC(=O)c2ccc3c(c2)C(=O)N(CCC(C)C)C3=O)c(C)n1Cc1cccs1
48	O=C(Nc1ccc(S(=O)(=O)N2CCCC2)cc1)Nc1ccc(F)cc1F
49	O=C(O)CCCC(=O)Nc1ccc(C(=O)N2CCCCC2)cc1
50	CCOC(=O)N1CCN(CC(=O)NCCc2ccc(Cl)cc2Cl)CC1
Screen / compound no.	46	47	48	49	50
Mtb MenB inh	-230	7	-12	33*	-9
Mtb MbtI inh	48	-8	-2	-2	-12
PV pol inh	97	104	99	102	97
PV pol inh intensity	109	109	102	101	104

51	Cn1nnc(C(O)CNCc2ccc(F)cc2)n1 (stereo not drawn)
52	Cc1ccc(NC(=O)Cn2c(CC3CCS(=O)(=O)C3)nc3ccccc32)cc1C (stereo not drawn)
53	Nc1ncnc2c1nc(SCC(=O)O)n2Cc1ccccc1
54	CS(=O)c1scc(-c2ccc(Cl)cc2)c1C#N (stereo not drawn)
55	CCC(C)Sc1nc(O)cc(=O)n1-c1ccccc1 (stereo not drawn)
Screen / compound no.	51	52	53	54	55
Mtb MenB inh	30*	-29	-26	-5	-217
Mtb MbtI inh	2	-3	-11	7	-17
PV pol inh	101	105	104	106	102
PV pol inh intensity	101	107	105	102	103

Part of the list above, bar-delimited:
nr | SMILES | Mtb MenB inh | Mtb MbtI inh | PV pol inh | PV pol inh intensity
46 | CN(C)Cc1c(O)ccc2cc(-c3nc4ccccc4n3C)c(=O)oc12 | -230 | 48 | 97 | 109
17 | Cc1c(C(=O)N2CCCC2)c(S(=O)(=O)Nc2ccccc2)c(C)n1C | -17 | -22 | 101 | 102
48 | O=C(Nc1ccc(S(=O)(=O)N2CCCC2)cc1)Nc1ccc(F)cc1F | -12 | -2 | 99 | 102
50 | CCOC(=O)N1CCN(CC(=O)NCCc2ccc(Cl)cc2Cl)CC1 | -9 | -12 | 97 | 104

Carrying on:
56	Cn1cc(NC(=O)NCCCN2CCCCC2)c2ccccc2c1=O
57	COc1ccc(C2CC(c3ccc(Br)cc3)=NN2C(=O)CCN2CCOCC2)cc1 (stereo not drawn)
58	CCO/C=C1\N=C(c2ccccc2)OC1=O
59	O=C1/C(=C/c2ccco2)SC(=S)N1CCc1ccccc1
60	O=C(c1noc2c1CCCCC2)N1CCCCC1
Screen / compound no.	56	57	58	59	60
Mtb MenB inh	0	-5	-21	-69	-12
Mtb MbtI inh	85	-8	22	14	-58
PV pol inh	100	99	103	99	103
PV pol inh intensity	102	104	95	105	105

61	O=C1c2ccccc2CCC1Sc1nnc(-c2ccncc2)o1 (stereo not drawn)
62	CC(C)(C)NS(=O)(=O)c1ccc(Br)cc1
63	Cc1cc(N2CCN(c3ccccn3)CC2)n2ncnc2n1
64	CC(C)NC(=O)C1(c2ccccc2)CCOCC1
65	O=C(Nc1ccc2c(c1)OCO2)C1=NN(C2CCS(=O)(=O)C2)C(=O)CC1 (stereo not drawn)
Screen / compound no.	61	62	63	64	65
Mtb MenB inh	-17	-65	-13	5	-18
Mtb MbtI inh	32	-11	-5	/	2
PV pol inh	99	98	103	100	98
PV pol inh intensity	99	100	104	106	97

66	C=CCOc1cc(C)nc(N2CCOCC2)n1
67	Cn1ncc(Br)c1NC(=O)CSc1ccc(Cl)cc1
68	O=C(CC1Nc2cccc3cccc(c23)NC1=O)Nc1ccccc1 (stereo not drawn)
69	COc1ccc(NC(=O)c2cnn3c2NC(c2cccc(OC)c2)CC3C(F)(F)F)cc1 (stereo not drawn)
70	O=C(Cn1nnc2ccccc21)NCCSCc1ccco1
Screen / compound no.	66	67	68	69	70
Mtb MenB inh	3	-15	-5	-19	15
Mtb MbtI inh	11	-3	-4	-3	4
PV pol inh	100	106	100	101	101
PV pol inh intensity	99	100	105	102	95

71	c1ccc(NNC2=NCCCCC2)nc1
72	COc1cc(S(=O)(=O)N2CCCC2)c(OC)cc1C
73	COc1ccc(CCN=C2SCCN2C(=O)c2ccc(NC(N)=O)cc2)cc1
74	CC1(C)CC(=O)C=C(NCCCN2CCOCC2)C1
75	CC(=O)Nc1cc(-n2c(C)nc3ccccc3c2=O)ccc1Cl
Screen / compound no.	71	72	73	74	75
Mtb MenB inh	2	-4	-6	-1	-12
Mtb MbtI inh	19	-7	16	/	11
PV pol inh	101	100	100	107	104
PV pol inh intensity	106	102	90	106	105

76	Cc1cc2c(cc1S(=O)(=O)NC(C)(C)C)OCC(=O)N2
77	O=C(NCCO)c1cccc(C(=O)NCCO)c1
78	CCC(C)NC(=O)C1(O)c2ccccc2NC(=O)N1c1ccccc1 (stereo not drawn)
79	CCCNC(=O)c1cnc(N2CCCC2)nc1
80	O=C(O)/C=C/c1ccc(Br)s1
Screen / compound no.	76	77	78	79	80
Mtb MenB inh	4	11	-12	-30	-22
Mtb MbtI inh	2	/	0	2	12
PV pol inh	103	105	100	105	103
PV pol inh intensity	104	106	101	100	104

81	O=C1NC(=S)NC(=O)C1=Cc1ccccc1
82	CCOc1cc(N2CCOCC2)c(OCC)cc1NC(=O)Cn1nnc(-c2ccccc2C)n1
83	O=C(NCCCn1ccnc1)c1cccnc1
84	O=C(c1ccco1)N1CCN(c2ccc(C(F)(F)F)cn2)CC1
85	O=C(O)C1CC=CCC1C(=O)Nc1ccc(Cc2ccncc2)cc1 (stereo not drawn)
Screen / compound no.	81	82	83	84	85
Mtb MenB inh	-82	4	0	-25	-8
Mtb MbtI inh	14	-6	-1	-5	12
PV pol inh	96	104	99	97	99
PV pol inh intensity	95	98	101	96	94

86	CCn1c(=O)cc(SCC(=O)NCC2(c3ccccc3)CCCC2)c2ccccc21
87	C=CCC(O)(CC=C)C(C)N (stereo not drawn)
88	CCC(C)(C#CCN1CCN(C)CC1)OC1CCCCO1 (stereo not drawn)
89	Cc1cc(=O)oc2c3c(ccc12)O/C(=C\c1ccc(Cl)cc1)C3=O
90	CC(C)(C)c1ccc(C(=O)NCCC(=O)N2CCN(c3ncccn3)CC2)cc1
91	CC(C)(C)C1=CC(=Nc2ccccc2N)C=C(C(C)(C)C)C1O (stereo not drawn)
92	COc1ccc(CSc2nc3ccccc3s2)cc1OC
93	COCCCN1C(=O)c2ccc(C(=O)OCC(=O)Nc3ccc(N(C)C)cc3)cc2C1=O
Screen / compound no.	86	87	88	89	90	91	92	93
Mtb MenB inh	-18	12	-14	-10	0	-13	-27	1
Mtb MbtI inh	9	-2	/	/	-3	-2	-79	14
PV pol inh	103	101	117	105	104	100	99	104
PV pol inh intensity	107	100	117	106	107	104	99	107
